AID923: qHTS Assay for Allosteric/Competitive Inhibitors of Caspase-1: Spectroscopic Profiling in AFC Spectral Region | compound fluorescence, AFC spectral region (405/520 nm); almost no hit is shown here | Potency, µM (highest dose often 57.5 µM), inactives show at the top dose fluorescence increase, most hits filed as activators | actives 1.1% (n = 75,000) | AID 923, 2007; active = well fitted activation curve with a large enough effect; inconclusive = small, poorly fitted or top-dose-only effect;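 also: potency is read from the fitted curve at half-maximal effect; 0% is about no effect; scaled to a free AFC standard on each plate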
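Compound autofluorescence profiled at 405 nm ex/520 nm em during kinetic caspase 1 run (50 nM enzyme, 5 uM Ac-WEHD-AFC, HEPES pH 7.5, 10 mM DTT). Titration up to 57 uM; baseline from regression intercept, normalized to AFC standard curve.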
A488 fluor: qHTS Assay for Spectroscopic Profiling in A488 Spectral Region. compound autofluorescence, A488 spectral region, dye equivalency; stronger effect = higher value. max dye equivalency, M. actives 0.1% (n = 59,000); active = above 10 nM dye equivalent; inconclusive = 1 to 10 nM; inactive = 1 nM or less; about half of its hits are not listed in these tables;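 also: highest value over a series up to 38 µM; compound alone in buffer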
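Compound autofluorescence was read in 100 mM Tris pH 8.0 after 15 min at room temperature, ex 480 nm/em 540 nm. Intensities were converted to A488 dye-equivalent concentration using an on-plate six-point A488 standard curve.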
Resorufin fluor: qHTS Assay for Spectroscopic Profiling in Resorufin Spectral Region. Compound fluorescence, resorufin region 547/598 nm, buffer; stronger effect = higher value. max dye-equivalent concentration, M. actives 0.04% (n = 59,000). AID 588, 2007; active = above 10 nM dye equivalent; inconclusive = 1 to 10 nM; inactive = 1 nM or less; a few of its hits are not listed in these tables; also: highest value over a series up to 38 µM
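Compounds in 100 mM Tris buffer, pH 8.0, incubated 15 min at room temperature, then read with 547 nm excitation and 598 nm emission filters. Fluorescence was converted to dye-equivalent concentration using an on-plate six-point resorufin standard curve.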
A647 fluor: qHTS Assay for Spectroscopic Profiling in A647 Spectral Region; Compound fluorescence, A647 channel (570/671 nm), Tris buffer; max dye-equivalent concentration, M; 59,000 tested, under 10 active; active means above 1 µM dye equivalent; inconclusive means 0.1 to 1 µM; inactive means 0.1 µM or less;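 also: values scaled relative to a standard on each plate; highest value over a series up to 38 µM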
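Buffer was dispensed, compounds and Alexa 647 standards were pin-transferred, and plates sat 15 min at room temperature. Intensity at 570/671 nm was then converted to dye-equivalent concentration using the plate's A647 standard curve.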
TSHR ag: qHTS Assay for Agonists of the Thyroid Stimulating Hormone Receptor | HEK293-CNG-TSHR cells (CNG channel as cAMP sensor), membrane potential dye, cAMP | Potency, µM (top dose mostly 57.1 µM), for the others: at the top dose activation, hits mostly activators | actives 0.48% (n = 73,000) | Thyrotropin receptor (Homo sapiens), P16473; active = well fitted activation curve of enough size with the parental cells flat; inconclusive = any curve in the parental cells; inactive = parental cells flat and receptor cells flat or falling; also: potency is read from the fitted curve at half-maximal effect; % of control where 0% means no effect; weak receptor curves with flat parental cells got no call and are not listed
Target sequence (P16473 whole entry, looked up): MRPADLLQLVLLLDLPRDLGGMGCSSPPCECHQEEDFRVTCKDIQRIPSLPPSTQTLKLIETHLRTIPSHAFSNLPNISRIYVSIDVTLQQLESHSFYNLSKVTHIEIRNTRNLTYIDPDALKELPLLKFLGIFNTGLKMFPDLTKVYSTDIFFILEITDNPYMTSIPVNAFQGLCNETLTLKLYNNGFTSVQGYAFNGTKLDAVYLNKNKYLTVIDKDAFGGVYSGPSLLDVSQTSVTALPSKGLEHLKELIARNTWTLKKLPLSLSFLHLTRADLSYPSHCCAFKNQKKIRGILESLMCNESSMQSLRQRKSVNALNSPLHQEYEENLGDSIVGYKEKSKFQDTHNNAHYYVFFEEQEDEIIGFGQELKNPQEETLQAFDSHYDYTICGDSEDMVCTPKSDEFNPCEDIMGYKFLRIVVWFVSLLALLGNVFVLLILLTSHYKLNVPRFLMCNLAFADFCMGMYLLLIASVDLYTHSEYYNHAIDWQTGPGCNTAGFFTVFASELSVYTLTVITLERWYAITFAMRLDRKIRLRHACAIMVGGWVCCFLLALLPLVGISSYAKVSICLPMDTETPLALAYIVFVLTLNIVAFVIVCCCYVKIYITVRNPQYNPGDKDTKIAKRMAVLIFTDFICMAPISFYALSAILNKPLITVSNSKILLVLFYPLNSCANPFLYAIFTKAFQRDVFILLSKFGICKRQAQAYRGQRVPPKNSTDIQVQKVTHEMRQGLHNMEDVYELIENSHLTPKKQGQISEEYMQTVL
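HEK 293 cells stably expressing TSHR and a modified CNG channel, with CNG-only parental cells as counterscreen, were preloaded 60 min at room temperature with membrane potential dye containing 100 uM RO 20-1724. Compound exposure was 30 min, and depolarization was read as fluorescence at 590 nm.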
* = called active by the depositor; i = inactive; ? = inconclusive; . = not tested or not shown; & = joins results of further samples; [ ] = dose if it differs, or a comment. These rows are one share of the data; rates above refer to the full screens.

SMILES	AID923	A488 fluor	Resorufin fluor	A647 fluor	TSHR ag
CC(=O)Nc1ccccc1OCC(=O)c1ccc2c(c1)OCO2	1.3%	i	i	2.3e-08	13%
CC(C)CO/N=C1/C[C@@H](O)[C@@H](O)[C@@H]2[C@H]3C(=O)N(c4ccc(F)cc4F)C(=O)[C@@H]3CC[C@H]12	-2.6%[11.5 µM]	.	.	.	0%[11.4 µM]
COc1ccc2[nH]cc(CCNc3nc(-c4cccc(C#N)c4)nc4ccccc34)c2c1	4.7%	i	i	1e-09	5%
O=C(CN(Cc1ccc(F)cc1)C(=O)CCC(=O)Nc1ccccn1)NCc1ccco1	-2.1%	i	i	4.9e-09	5%
CCc1ccccc1NC(=O)CC1S/C(=N\c2nccs2)N(CC)C1=O (stereo not drawn)	0.0%	i	i	2.8e-08	5%
CC(=O)NC(CCS(C)(=O)=O)C(=O)Nc1ccc(Cl)c(Cl)c1 (stereo not drawn)	0.5%	.	.	.	-5%
COC(=O)c1ccc(-c2nc(O)c3cnccn23)cc1	8.4%	i	i	1e-09	1%
CCOC(=O)N1CCN(c2c(N3CCC(N4CCCCC4)CC3)c(=O)c2=O)CC1	-1.4%	.	.	.	-12%
CCN(CC)CCNC(=O)Cn1cnc2sc(C)c(S(=O)(=O)N3CCOCC3)c2c1=O	-1.7%	i	i	2.4e-08	3%
CNNCc1ccc(C(=O)NC(C)C)cc1	9.6%[25.7 µM]	i	i	1.7e-09	-16%[25.6 µM]
Cc1cc(OCCCCCNCCO)ccc1Cl	-0.4%	.	.	.	6%
CC1(C)CC(=O)C2=C(C1)N(c1ccc(F)cc1)C(=O)CC2c1cccnc1 (stereo not drawn)	-1.3%	.	.	.	3%
Cc1sc2nc(CN(C(=O)c3cccs3)C3CCCC3)[nH]c(=O)c2c1C	-0.9%	i	i	1e-09	?
Cc1cc(NC(=O)c2ccc3c(c2)OCCO3)no1	-1.1%	i	i	1e-09	-5%
Cn1c(=O)[nH]c(=O)c2c1nc(Br)n2CCCO	3.6%	i	i	1.1e-09	-13%
CC1CCCCN1CCCNC(=O)c1ccc(-n2c(=O)c(=O)[nH]c3ccccc32)cc1 (stereo not drawn)	-0.4%	.	.	.	15%
Cc1ccc(C)c(NC(=O)CSc2nnc(CSc3nc(C)cc(C)n3)n2Cc2ccco2)c1	2.7%	i	i	1e-09	12%
CCOC(=O)c1sc(N)c(C#N)c1CSc1nnc(C2CCCCC2)n1N	4.6%	i	i	3.2e-09	?
CCn1c(=O)c(C(=O)NCc2ccc(OC)cc2)c(O)c2ccccc21	1.8%	i	i	3.7e-09	7%
O=C(COC(=O)C1CC(=O)N(c2ccc3c(c2)OCCO3)C1)NC1CCCc2ccccc21 (stereo not drawn)	-0.7%	i	i	2.1e-08	6%
COc1ccccc1-c1noc(CCC(=O)Nc2cccc(C)c2)n1	0.5%	i	i	9e-09	2%
CC(=O)Nc1coc2ccc(Br)cc12	0.7%	i	i	2.6e-08	2%
O=C(O)CN1CCN(Cc2ccc(F)cc2Cl)C1=O	2.0%	i	i	4.4e-09	-12%
CC(=O)C(Sc1nn(C)c(=S)s1)C(=O)Nc1ccccc1 (stereo not drawn)	-1.0%	i	i	2.6e-08	?
COc1ccc(-n2c(Cc3cccn3C)nnc2SCC(=O)Nc2ccccc2F)cc1	0.0%	.	.	.	-2%
CCN(CC)CCCC(C)n1c(-c2ccccc2)nc2c(NCCOC)nc(C)nc21 (stereo not drawn)	-0.6%	.	.	.	5%
Cc1cc(NC(=O)c2ccco2)ncc1NC(=O)CCc1ccccc1	2.4%	i	i	4.8e-08	11%
NC(=O)c1cc(S(=O)(=O)Nc2cccc(F)c2)co1	-1.3%	.	.	.	?
O=S(=O)(c1ccccc1)N1CCC2(CCN(C(c3ccccc3)c3ccccc3)CC2)CC1	2.7%	i	i	1e-09	-2%
CNc1nc(-c2cccc(C#N)c2)nc2ccccc12	0.8%	i	i	1.4e-08	0%
C[C@@H]1CNCCN1S(=O)(=O)c1cccc2cnccc12	0.6%&-0.7%	i	i	4.8e-09&2.4e-08	4%&12%
CCCC(=O)Nc1c(C(=O)OCC)[nH]c2ccccc12	2.3%	.	.	.	?
O=C(NC1CCN(Cc2ccccc2)CC1)C1CCCN(S(=O)(=O)c2cccc3nonc23)C1 (stereo not drawn)	2.1%	i	i	3.1e-08	-7%
CC(=O)N1C(=O)N(C)C2C1N(C)C(=O)N2C(C)=O (stereo not drawn)	-0.8%	i	i	2.2e-08	5%
CCOC(=O)c1cccc(NC(=O)CN(c2ccc(C)cc2)S(=O)(=O)c2c(C)n[nH]c2C)c1	0.0%	i	i	1.1e-08	0%
Cc1noc(C)c1CSc1nc2ccccc2nc1NS(=O)(=O)c1ccc(Cl)cc1	-2.8%	i	i	1e-09	13%
c1ccc2c(NCC3CCCO3)nc(-c3ccncc3)nc2c1 (stereo not drawn)	.	i	i	1e-09	.
CCSc1nnc(NC(=O)C(C(F)(F)F)C(F)(F)F)s1	.	i	i	3.9e-08	.
COc1ccccc1NC(=O)c1cc(Sc2nncn2C)nc2ccccc12	0.6%	i	i	1.8e-08	2%
O=C(CSc1nnc(-c2ccccc2O)o1)N1CCc2ccccc2C1	0.4%	i	i	1e-09	?
CCCOc1ccc(N2C(=O)CC(N3CCCC(C(=O)N4CCCC4)C3)C2=O)cc1 (stereo not drawn)	-1.7%	i	i	1.8e-08	1%
CSc1cccc(NC(=O)COc2ccccc2)c1	-0.7%	i	i	1.4e-08	15%
Cc1onc(-c2ccccc2Cl)c1C(=O)NCCn1c(C)cc2ccccc21	-5.6%	.	.	.	26%
N#Cc1cccc(-c2nccc(-n3ccnc3)n2)c1	-0.6%	i	i	3.6e-09	-10%
CCc1nc2ccccc2n1CC(=O)N(C(C)CC)C1CCS(=O)(=O)C1 (stereo not drawn)	-0.8%	i	i	1.5e-08	24%[11.4 µM]
CC1(C)CC2CC(C)(CN2C(=O)C23CCC(C)(C(=O)O2)C3(C)C)C1 (stereo not drawn)	-0.9%	.	.	.	6%
O=C(O)/C=C\[C@H](O)c1ccc(Cl)cc1	-1.5%	i	i	1.2e-08	?
CN(C)c1nc(OCCNC(=O)COc2ccc(Cl)cc2Cl)nc(N2CCOCC2)n1	0.2%	i	i	1e-09	.
Cc1cccc(CCNC(=O)c2nnc(Cc3ccc(Cl)cc3)o2)c1	-0.4%	.	.	.	7%
CNc1ccccc1-n1ccc(-c2ccccc2)n1	-2.1%	i	i	1e-09	14%

Gathered by group, the compounds so far with a thiophene ring, fused or not (3)
SMILES	AID923	A488 fluor	Resorufin fluor	A647 fluor	TSHR ag
CCN(CC)CCNC(=O)Cn1cnc2sc(C)c(S(=O)(=O)N3CCOCC3)c2c1=O	-1.7%	i	i	2.4e-08	3%
Cc1sc2nc(CN(C(=O)c3cccs3)C3CCCC3)[nH]c(=O)c2c1C	-0.9%	i	i	1e-09	?
CCOC(=O)c1sc(N)c(C#N)c1CSc1nnc(C2CCCCC2)n1N	4.6%	i	i	3.2e-09	?

Additional structures.
SMILES	AID923	A488 fluor	Resorufin fluor	A647 fluor	TSHR ag
c1ccc2c(N3CCCCC3)nc(N3CCCCC3)nc2c1	.	i	i	1e-08	.
Cc1nn(Cc2ccccc2)c(Cl)c1C(=O)OCc1nnc(-c2ccc(Cl)cc2)o1	1.9%	i	i	1e-09	?
O=C(c1cnccn1)N1CCC2(CC1)CCN(c1ncccn1)CC2	0.5%	i	i	1e-09	7%
O=C(CSc1nc2c(cnn2-c2ccc(F)cc2)c(=O)[nH]1)N1CCCCCC1	-2.2%	.	.	.	-3%
Cc1nn(-c2ccccc2)c2c1C1(C(=O)N(C)c3ccccc31)C(C#N)=C(N)O2 (stereo not drawn)	2.4%	i	i	1.7e-08	-10%
O=C(NCCN1CCOCC1)c1ccc2c(c1)N(Cc1ccc(F)cc1)C(=O)CS2	-0.1%	.	.	.	2%
COc1cc(C2=NOC(C(=O)NC3CCCCC3)C2)cc(OC)c1OC (stereo not drawn)	0.1%	i	i	1.2e-08	2%
Cc1cc(C(=O)OCC(=O)NCc2ccco2)c(C)n1-c1ccc(F)cc1	0.5%	i	i	3.5e-08	?
COC(=O)c1ccc(CSc2nnc3c(Cl)cc(Cl)cn23)o1	0.7%	i	i	1e-09	2%
O=P(O)(O)CP(=O)(O)O	0.0%	i	i	4.5e-09	1%
O=C(Nc1ccc(-c2cn3ccccc3n2)cc1)c1cc(Br)ccc1O	1.6%[11.5 µM]	i	i	1.6e-09	2%[11.4 µM]
O=C(CN1CCOCC1)Nc1ccc(OCc2ccccc2)cc1	0.2%	i	i	3.9e-08	2%
CCOC(=O)N1CCN(S(=O)(=O)c2ccc(C)c(C)c2)CC1	0.7%	i	i	1e-09	6%
COCCCn1c(-c2ccco2)nc2ccccc2c1=O	2.9%	.	.	.	-4%
COCc1c(C)cc(C)c(/C=N/O)c1C	2.2%	i	i	1.4e-08	-11%
COc1ccc(C2C(C(=O)O)CC(=O)N2C2CCCCC2)cc1 (stereo not drawn)	-0.1%	i	i	1e-09	2%
CCOC(=O)CC1Sc2ccccc2NC1=O (stereo not drawn)	1.7%	i	i	1.1e-08	?
COc1ccccc1CN1CCC2(CC1)CCN(C(=O)c1c(C)noc1C)CC2	0.5%	i	i	1e-09	0%
CC(NC(=O)c1cccs1)C(=O)NC1=NCCS1 (stereo not drawn)	0.1%	i	i	2.8e-08	4%
COCCNC(=O)CN(C(=O)CCC(=O)Nc1nccs1)c1ccccc1OC	0.8%	i	i	1.6e-09	2%
N[C@H](CCC(=O)NCS(=O)(=O)O)C(=O)O	-2.1%	i	i	1e-09	5%
Cc1ccc(CNC(=O)c2ccccc2NS(C)(=O)=O)cc1	-1.0%	i	i	6.6e-09	1%
O=C(CSCc1nc2ccccc2[nH]1)N1CCN(c2ccc(F)cc2)CC1	0.7%	i	i	1e-09	26%
c1csc(-c2ncc3ccccn23)c1	3.8%	i	i	3e-08	-4%
CCOC(=O)C1C(=O)N(C(=O)c2ccc(OC)cc2)CC1c1ccccc1 (stereo not drawn)	-7.2%	.	.	.	0%
CC(=O)Nc1sc2c(c1C(c1cccs1)N1CCOCC1)CCCC2 (stereo not drawn)	-1.0%	i	i	2.6e-08	.
O=C(NC(O)C(=O)c1ccccc1)c1cccs1 (stereo not drawn)	-1.2%	.	.	.	-9%
COc1ccccc1CN1CCC2(CC1)CCN(C(=O)c1cccc(F)c1)CC2	3.3%	i	i	1e-09	3%
CCCCCCN(C(=O)CCCCCN1C(=O)NC(c2ccc(-c3ccccc3)cc2)C(C(=O)OCc2ccccc2)=C1C)C(C(=O)NCCCC)c1ccc(O)cc1 (stereo not drawn)	-2.0%	.	.	.	1%
COc1cccc(NC(=O)CCN2CCN(C)CC2)c1	0.4%	i	i	4e-09	1%
CCNc1sc(C(=O)c2cccs2)c(N)c1-c1nc2ccccc2s1	2.0%	i	i	1e-09	-19%
O=c1c2ccccc2[nH]c(=S)n1Cc1cccnc1	-0.7%	.	.	.	-7%[11.4 µM]

Reformatted: entries from further up.
Below each SMILES: AID923, A488 fluor, Resorufin fluor, A647 fluor, TSHR ag
> COCc1c(C)cc(C)c(/C=N/O)c1C
  2.2%, i, i, 1.4e-08, -11%
> COc1ccc(C2C(C(=O)O)CC(=O)N2C2CCCCC2)cc1 (stereo not drawn)
  -0.1%, i, i, 1e-09, 2%

Compound activity from PubChem BioAssay.
